TRPML1 agonist – activates the human TRPML1 channel. hit rate 0.12% among 410,000. activation, % (no concentration beside the values). TRPML1-expressing cells, Ca2+ dye fluorescence, FDSS; host cell line not named in the record; reference of the full effect not given here. Q9GZU1. AID 624414; in the data active = activation above about 50%; inconclusive = about 30% to 50%; inactive = below about 30%; also: 0% is about no effect; the text of the record puts the active cut at 80%
Target sequence (Q9GZU1 whole entry, looked up): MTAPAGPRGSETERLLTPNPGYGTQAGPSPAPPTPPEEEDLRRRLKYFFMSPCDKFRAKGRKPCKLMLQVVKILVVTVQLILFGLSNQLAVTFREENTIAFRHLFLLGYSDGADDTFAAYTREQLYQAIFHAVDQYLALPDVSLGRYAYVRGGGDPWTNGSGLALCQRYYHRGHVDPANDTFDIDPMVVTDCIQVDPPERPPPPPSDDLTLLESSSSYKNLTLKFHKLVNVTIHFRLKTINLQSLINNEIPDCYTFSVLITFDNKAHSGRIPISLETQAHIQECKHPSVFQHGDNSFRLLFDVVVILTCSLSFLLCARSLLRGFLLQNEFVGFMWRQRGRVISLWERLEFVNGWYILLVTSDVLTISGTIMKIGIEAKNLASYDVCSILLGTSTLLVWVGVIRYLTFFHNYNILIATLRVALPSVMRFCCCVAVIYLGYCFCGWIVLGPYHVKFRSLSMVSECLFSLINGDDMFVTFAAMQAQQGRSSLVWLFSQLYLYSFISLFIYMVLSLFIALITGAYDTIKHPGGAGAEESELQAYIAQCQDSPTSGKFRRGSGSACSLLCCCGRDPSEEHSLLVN
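Calcium fluorescence on an FDSS kinetic reader gave the read-out. Tet-induced TRPML1-DL cells were plated overnight, dye-loaded (Ca8 with quencher, 45-90 min, room temperature, dark), then read 110 s after compound addition, and again 110 s after 4uM final 54-4 (EC80).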
PINK1 expr mod – modulators of PINK1 expression; PINK1 immunofluorescence, high-content cytometry, 24 h; Potency, µM (series often up to 76.6 µM), without a hit: at the top dose activation (PINK1 increase), usual class: activators; hit rate 0.2% among 410,000; active = well fitted activation curve with a large enough effect; inconclusive = small, poorly fitted or top-dose-only effect; inactive = flat fitted curve, though single readings scatter; cell line not stated here;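 also: potency is read from the fitted curve at half-maximal effect; % of control where 0% means no effect; nearly all actives have a fitted effect of over 65% in size; a mitochondrial uncoupler was the plate control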
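Decision-based qHTS: stable cells, 24 h exposure to five compound concentrations, CCCP as control. Fixed cells stained for PINK1 plus nuclear, mitochondrial and cell markers, cytometer read.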
D2 agonist – human D2 receptor agonism in beta-arrestin assay | P14416 | DiscoveRx PathHunter D2 beta-arrestin, luminescence, 90 min; 100% = 57 uM dopamine signal | activation, % (no concentration beside the values) | hit rate 0.084% among 360,000 | AID 624465; in the data active = activation above about 40%; inconclusive = about 15% to 40%; inactive = below about 15%; also: compound concentration not given in the record; the text of the record calls up to 30% inactive
Target sequence (P14416 whole entry, looked up): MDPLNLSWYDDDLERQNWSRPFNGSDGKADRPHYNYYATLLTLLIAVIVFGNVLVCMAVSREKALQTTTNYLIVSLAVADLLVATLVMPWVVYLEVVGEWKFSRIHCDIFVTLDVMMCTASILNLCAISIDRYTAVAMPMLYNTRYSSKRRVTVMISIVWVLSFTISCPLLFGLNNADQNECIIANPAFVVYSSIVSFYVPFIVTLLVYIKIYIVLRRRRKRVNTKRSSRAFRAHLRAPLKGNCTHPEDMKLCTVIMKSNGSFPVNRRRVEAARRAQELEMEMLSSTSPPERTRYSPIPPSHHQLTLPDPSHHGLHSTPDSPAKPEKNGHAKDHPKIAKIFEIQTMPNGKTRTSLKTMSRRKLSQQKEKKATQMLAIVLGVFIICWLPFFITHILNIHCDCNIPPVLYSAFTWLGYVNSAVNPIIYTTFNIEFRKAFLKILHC
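Agonist mode: compounds alone added to overnight-plated D2 PathHunter cells for 90 min at 37 C, with 57 uM final dopamine (EC100) defining full response. Beta-arrestin recruitment detected by chemiluminescent reagent, read after 1 h at ambient temperature.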
TRPML1 blocker – blocks the human TRPML1 channel | TRPML1-inducible cells, Ca2+ dye fluorescence, FDSS; active compounds read low; inhibition of EC80 agonist-evoked calcium signal | hit rate 0.02% among 390,000 | Q9GZU1 | activity change, negative = inhibition, % (test concentration not listed); in the data active means activity change below about -50%; inconclusive means about -30% to -50%; inactive means above about -30%;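 also: stimulus is agonist 54-4 at its EC80 concentration; % is scaled to controls: 0 for no effect and ±100 for the full control effect; compound concentration not given in the record; the text of the record puts the active cut at -80%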
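Tet-induced TRPML1-DL cells loaded with Ca8 no-wash calcium dye were read kinetically on FDSS. Compound addition was followed by EC80 agonist 54-4 (4 uM final); inhibition was read over 110 s.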
CtBP-E1A inh – blocks the CtBP interaction with E1A. AlphaScreen GST-E1A/His-CtBP binding, 1536-well; active compounds read low; control for the full effect not named in the record. activity change, % (no concentration beside the values). hit rate 0.49% among 340,000. AID 651724; in the data active means activity change below about -65%; inconclusive means about -30% to -65%; inactive means above about -30%; also: % is scaled to controls: 0 for no effect and ±100 for the full control effect
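Protein mix (5X: 125 nM each GST-E1A, His-CtBP) was incubated with pinned compound 2 h at 37 deg C in dark, in 50 mM Tris pH 8.0 buffer with 300 mM NaCl. Glutathione donor and nickel acceptor beads followed; AlphaScreen signal read after 1 h.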
Six1-Eya2 inh – blocks human Six1 binding to Eya2; hit rate 0.56% among 360,000; AID 651725; activity change, % (concentration not given with the values); AlphaScreen GST-Six1/His-Eya2 binding, biochemical; active compounds read low; control for the full effect not named in the record; Q15475+O00167; in the data active = activity change below about -65%; inconclusive = about -30% to -65%; inactive = above about -30%; also: % is scaled to controls: 0 for no effect and ±100 for the full control effect
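AlphaScreen luminescence read after one hour at 37 °C in darkness. Pin-transferred compounds met GST-Six1 and His-Eya2 protein (5X stock 250 nM/500 nM) plus glutathione donor and Ni-chelate acceptor beads (5X, 50 ug/mL).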
Starred values were filed as active, the others as inactive; ? = inconclusive; · = no result given; [ ] = remark or other dose. Outcome played no part in choosing rows, and some 1% of all compounds hit somewhere here.

Below each SMILES – TRPML1 agonist	PINK1 expr mod	D2 agonist	TRPML1 blocker	CtBP-E1A inh	Six1-Eya2 inh
1: Cn1c(C(=O)NCCCN2CCN(c3ccccc3F)CC2)cc2c(=O)n(C)c3ccccc3c21
→ 0.6	4.8%	?	13	-19	-16
2: O=C(COC(=O)COc1cccc(F)c1)Nc1nc2ccccc2s1
→ -0.5	4.2%	4.4	6	·	-1
3: COc1ccc(C2c3cc4c(cc3OC(NNC(N)=O)C2C)OCO4)cc1 (stereo unspecified)
→ 3.7	-0.1%	-0.7	20	-7	-9
4: CCOC(=O)C(=O)Nc1nc(-c2ccccc2)c(CC)s1
→ 2.2	2.2%	0.9	10	·	-1
5: COc1ccccc1NC(=O)c1ccc(NC(=O)COC(=O)c2cccnc2Cl)cc1
→ 1.8	-5.2%	-1.1	4	-27	-13
6: O=C(Cc1ccc(F)cc1)N1CCN(c2ccc([N+](=O)[O-])cc2)CC1
→ ·	-1.1%	1.5	·	·	0
7: Cc1nc2ccc(Br)cc2c(=O)n1Cc1cccs1
→ -1.2	-0.4%	-3.2	15	·	-2
8: CCOc1ccccc1N1CCN(CC(O)COC2CCCc3ccccc32)CC1 (stereo unspecified)
→ -0.2	13%	-1.5	2	-10	4
9: Cc1ccc(S(=O)(=O)N2CC(=NO)C2)cc1
→ -1.5	-1.5%	-2.1	-7	9	2
10: CSc1ccc(NC(=O)NCCN2CCc3ccccc3C2)cc1
→ -0.1	-2.3%[38.3 µM]	-4.0	1	-8	-22
11: CN1CCC(=O)N(CCOc2ccccc2)CC1
→ -0.1	0.5%	-4.5	-10	-86*	-83*
12: Cc1ccc(C)c(NC(=O)NCCN2CCCCC2)c1
→ -0.2	-0.4%	0.4	-10	-9	1
13: O=c1c(Cl)c(N2CCNCC2)cnn1C12CC3CC(CC(C3)C1)C2
→ 0.1	1.2%	0.8	25	6	-2
14: Cn1c(=O)c2c(SC3CCCC3)nc(C3CC3)nc2n(C)c1=O
→ 0.2	1.3%	-3.0	37	4	2
15: CCCNC(=O)Cn1nc(C)c2c(C)n(-c3ccccc3)nc2c1=O
→ -0.4	1.6%	·	6	·	·
16: COc1cc(NC(=O)CCc2c(C)noc2C)c(C(=O)O)cc1OC
→ 0.1	1.0%	-3.2	12	-4	3
17: COc1ccc(-c2nc(CS(=O)CC(=O)NCC3CCCO3)c(C)o2)cc1 (stereo unspecified)
→ -0.4	2.0%	-0.5	0	30	17
18: COc1cccc(C(=O)NCCNC(=O)c2cnccn2)c1
→ 0.8	1.2%	5.9	-11	-25	0
19: CCN(CC(=O)Nc1ccc(C)c(S(=O)(=O)N(C)C)c1)Cc1ccccc1
→ 0.1	1.2%	-3.0	?	·	-2
20: COc1ccc(C2CC(c3cccs3)n3nc(N)nc3N2)cc1 (stereo unspecified)
→ 0.5	2.3%	-3.2	19	?	?
21: COc1ccc(/C=C2\SC(=O)N(CCCC(=O)Nc3cc(Cl)ccc3C(=O)O)C2=O)cc1
→ 3.3	-4.4%	1.0	8	-19	-9
22: COc1ccc(CCNC(=O)C2CCN(c3nc4ccccc4nc3C(F)(F)F)CC2)cc1OC
→ -0.9	1.9%	·	-6	·	·
23: COc1cccc(OC)c1C1=NC(C)(C)CO1
→ 0.3	4.0%	-12	16	5	15
24: C=CCN(c1nc(C)cc(OC)n1)S(=O)(=O)c1ccc(C)cc1
→ 5.4	0.7%	4.1	-4	15	7
25: COc1ccc(C(N)=O)cc1NC(=O)c1cccc(F)c1
→ -0.5	0.7%	0.5	2	-6	-1
26: CCOc1ccc(C2c3c(oc4ccc(C)cc4c3=O)C(=O)N2CCCN(C)C)cc1OC (stereo unspecified)
→ 0.1	3.5%	·	-12	·	·
27: CC(C)(C)Nc1nc(SCC(=O)Nc2ccccc2Cl)nc(N2CCOCC2)n1
→ 0.9	-0.4%	-4.6	-5	0	2
28: Cc1cc(S(=O)(=O)C(CNC(=O)COc2ccccc2)c2cccs2)ccc1F (stereo unspecified)
→ -0.1	-0.1%	·	-14	·	·
29: COc1ccc(N(CC(=O)NCc2ccccc2)S(=O)(=O)c2c(C)noc2C)cc1
→ -0.4	3.4%[38.3 µM]	-1.0	-11	2	4
30: Cc1cccc(N=C2NC(=O)S/C2=C\c2ccco2)c1
→ 0.4	-2.2%	-5.3	-7	-12	-22

9 structures out of the list, arranged by count of non-hydrogen atoms, lowest first.
Below each SMILES – TRPML1 agonist	PINK1 expr mod	D2 agonist	TRPML1 blocker	CtBP-E1A inh	Six1-Eya2 inh
23: COc1cccc(OC)c1C1=NC(C)(C)CO1
→ 0.3	4.0%	-12	16	5	15
30: Cc1cccc(N=C2NC(=O)S/C2=C\c2ccco2)c1
→ 0.4	-2.2%	-5.3	-7	-12	-22
25: COc1ccc(C(N)=O)cc1NC(=O)c1cccc(F)c1
→ -0.5	0.7%	0.5	2	-6	-1
20: COc1ccc(C2CC(c3cccs3)n3nc(N)nc3N2)cc1 (stereo unspecified)
→ 0.5	2.3%	-3.2	19	?	?
19: CCN(CC(=O)Nc1ccc(C)c(S(=O)(=O)N(C)C)c1)Cc1ccccc1
→ 0.1	1.2%	-3.0	?	·	-2
28: Cc1cc(S(=O)(=O)C(CNC(=O)COc2ccccc2)c2cccs2)ccc1F (stereo unspecified)
→ -0.1	-0.1%	·	-14	·	·
21: COc1ccc(/C=C2\SC(=O)N(CCCC(=O)Nc3cc(Cl)ccc3C(=O)O)C2=O)cc1
→ 3.3	-4.4%	1.0	8	-19	-9
26: CCOc1ccc(C2c3c(oc4ccc(C)cc4c3=O)C(=O)N2CCCN(C)C)cc1OC (stereo unspecified)
→ 0.1	3.5%	·	-12	·	·
22: COc1ccc(CCNC(=O)C2CCN(c3nc4ccccc4nc3C(F)(F)F)CC2)cc1OC
→ -0.9	1.9%	·	-6	·	·

More compounds follow:
Below each SMILES – TRPML1 agonist	PINK1 expr mod	D2 agonist	TRPML1 blocker	CtBP-E1A inh	Six1-Eya2 inh
31: O=C(COC(=O)c1cccc(O)c1)Nc1ccc(N2CCOCC2)cc1
→ -1.2	1.6%	-0.4	20	·	4
32: CC(=O)c1cccc(OCCCOc2cccc3cccnc23)c1
→ 1.5	0.9%	5.6	20	-3	-6
33: Cc1c(C(=O)N2CCN(c3ccccc3F)CC2)oc2c1C(=O)CC(C)(C)C2
→ 1.8	1.9%	-4.7	1	·	-3
34: c1ccc(C(c2nnnn2Cc2ccco2)N2CCN(c3nc4ccccc4s3)CC2)cc1 (stereo unspecified)
→ 11	-0.8%	0.0	-4	-7	-13
35: COc1ccc2[nH]c(=O)c(C(c3nnnn3C3CCCCC3)N3CCN(C)CC3)cc2c1 (stereo unspecified)
→ 0.0	12%[38.3 µM]	-4.5	6	6	0
36: CC1(C)Cc2c(ccc3ccccc23)C(NNC(=O)c2cccnc2)=N1
→ 0.6	1.0%	-0.5	19	-6	11
37: Cc1cc(C)cc(OCC(=O)N(C)CC(=O)Nc2ccc(Cl)c(C(F)(F)F)c2)c1
→ 0.5	8.9%	3.3	11	7	0
38: COc1ccccc1Nc1ccc(C(=O)O)cc1[N+](=O)[O-]
→ 0.1	0.2%	-4.6	-13	3	-3
39: c1ccc2c(-c3c[nH]c4ccccc34)c3ccccc3nc2c1
→ 1.4	2.7%	-5.9	16	26	22
40: COC(=O)CC(N)c1ccc(Br)cc1 (stereo unspecified)
→ 0.5	-0.5%	-6.3	11	0	-2
41: CCn1cc(/C=C2/SC(=S)NC2=O)c(C)n1
→ 0.1	0.9%	-3.6	-6	3	7
42: O=S(=O)(c1cccs1)N1CCC2(CC1)OCCO2
→ -0.5	-0.3%	4.4	-1	11	3
43: Cc1cccc(C)c1NC(=O)CNC(=O)c1ccc(N2CCCC2)c([N+](=O)[O-])c1
→ -0.5	2.4%	-6.2	-1	-3	-5
44: CC(C)[C@@H](CO)NC(=O)c1ccc2c3n(nc2c1)-c1ccccc1CO3
→ -0.7	-0.1%	0.1	20	0	0
45: Cc1cccc(CCNS(=O)(=O)c2ccc(S(=O)(=O)N3CCCCC3)cc2)c1
→ 0.3	14%[38.3 µM]	-1.4	-4	-1	1
46: O=C(Nc1ccccc1N1CCCC1)C1=COCCO1
→ 0.7	0.2%	-3.2	6	4	3
47: O=Cc1c(F)cccc1N1CCCC1
→ -0.6	-0.6%	0.1	4	0	-3
48: CCOc1ccccc1NC(=O)CSc1c2c(nc3ccc(Cl)cc13)CCCC2
→ 5.2	2.8%	·	6	·	·
49: Cc1cc(C)c(Nc2ncnc(N)n2)c(C)c1
→ -0.2	0.9%	1.9	-4	-18	5
50: CC(NC(=O)c1ccc(N2CCCC2=O)cc1)c1ccccc1 (stereo unspecified)
→ 1.8	8.2%[38.3 µM]	-2.0	11	3	1
51: CN1CCN(S(=O)(=O)c2cnccc2N2CCN(c3cccc(Cl)c3)CC2)CC1
→ 2.3	-1.6%	3.7	3	-6	-12
52: Cc1ccc(/C=C/c2nc3ccccc3c(=O)n2CCc2ccccc2)cc1
→ -0.7	11%	-3.2	-1	-2	0
53: CN(C)c1ccnc(Oc2ccc(Cl)cc2)c1C#N
→ 0.8	0.8%[38.3 µM]	-2.2	30	5	8
54: Cc1ccc2sc(N3CCN(CCNC(=O)c4ccco4)CC3)nc2c1C
→ -0.2	-0.9%	-4.1	-9	-2	-2
55: COC(=O)[C@@]1(C)[C@H]2C(=O)N(C)C(=O)[C@H]2[C@H]2CN=C(SC)N21
→ 0.7	1.1%	-1.0	37	35	33
56: NNc1ccc([N+](=O)[O-])c2[nH][nH]c(=O)c12
→ -0.3	-0.4%	10.0	2	?	?
57: CCCCN(CC)CCCNC(=O)Nc1sc2nc3n(c(=O)c2c1C)CCC(C)CC3 (stereo unspecified)
→ -1.2	10%	·	-12	·	·
58: CCOc1ccc(CCNC(=O)CCCc2nnc3n(CC)c(=O)c4sccc4n23)cc1OCC
→ 0.5	0.6%	·	4	·	·
59: Cc1cc(C(=O)Nc2cc(C)on2)on1
→ -0.4	-0.8%	-0.9	0	6	-1
60: O=C1NC[C@H](CCCCN2C[C@H](Cc3ccc(O)cc3)N(Cc3ccccc3)C(=O)C2=O)N(CCc2ccc(O)cc2)C1=O
→ -0.2	-1.2%	·	·	1	-11

Screens deposited in PubChem by National Center for Advancing Translational Sciences (NCATS).
